NPYLR7 agonist: activates Aedes aegypti NPYLR7 receptor; HEK293T NPYLR7/Galpha15, GCaMP6s calcium fluorescence; activation, % at 10 µM; 270,000 tested, 0.15% active; AID 1259423; in the data active = activation above about 40%;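 also: 0% = vehicle and 100% = reference agonist at the receptor; some compounds past the cut are filed as inactive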
NPYLR7 agonist max-min: also measured in NPYLR7 agonist; calls as there; activation, %; measured here: Max-Min RFU normalised activation; some inactives read as strong as hits;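 span of the calcium signal over five minutes; 0% = vehicle and 100% = native peptide agonist; compound fluorescence can raise it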
An asterisk follows results filed as active; & = joins results of further samples.

Start of the data: the first two entries (preview)
SMILES	NPYLR7 agonist	NPYLR7 agonist max-min
O=C(c1cccc(F)c1)N(Cc1nccn1Cc1ccc(C(F)(F)F)cc1)C1CC1	9	13
CCC(C(=O)N1CCC2(CC1)C(=O)Nc1ccccc12)n1cccn1 (stereo not given)	8	4

The listing, from the first entry:
SMILES	NPYLR7 agonist	NPYLR7 agonist max-min
O=C(c1cccc(F)c1)N(Cc1nccn1Cc1ccc(C(F)(F)F)cc1)C1CC1	9	13
CCC(C(=O)N1CCC2(CC1)C(=O)Nc1ccccc12)n1cccn1 (stereo not given)	8	4
CN(C(=O)CSc1nnc(C2CC2)o1)C1CCS(=O)(=O)C1 (stereo not given)	4	2
COCC(C)N1C(=Nc2cccnc2)SCC1(O)c1cc2ccccc2o1 (stereo not given)	-1	-5
COc1coc(C(=O)N2CCN(c3ccc(C(C)=O)cc3)CC2)cc1=O	-4	-3
CC(C)CCn1nc(-c2nc3sc4c(c3c(=O)[nH]2)CCCC4)c2ccccc2c1=O	20	12
COCC(NC(=O)COc1c(C)ccc(C)c1C)c1ccnn1C (stereo not given)	-4	-9
CCN(CCN1CCCC1)C(=O)c1ccc(-n2cccc2)cc1	-9	-11
COc1ccc(CNC(=O)c2cn(CCOc3ccc(F)cc3)c(=O)s2)cc1OC	1	0
O=C(c1cccnc1Cl)N1CCN(Cc2ccc(-c3noc(-c4ccccc4)n3)cc2)CC1	9	14
Cc1ncc([N+](=O)[O-])n1CCNC(=O)CCn1c(=O)oc2ccccc21	-8	-12
Cc1cc(C)n2c(NC3CCCCC3)c(-c3cccc(F)c3)nc2c1	5	17
CC(O)(c1ccccc1)c1nc(-c2csc3ccccc23)cs1 (stereo not given)	12	11
Cn1cc(CCC(=O)N2CCCCCC2/C=C/c2ccccc2)cn1 (stereo not given)	2	2
COC(=O)c1ccc2oc(=O)n(C3CCN(C(=O)c4cc(C)oc4C)CC3)c2c1	18	15
COc1ccc(OC)c(S(=O)(=O)N2CCN(c3ncccc3C(=O)NCCc3ccc(OC)c(OC)c3)CC2)c1	31	18
C=c1cc(C)n(CC(=O)Nc2ccc(C)c(F)c2)c(=O)c1=C1N=C(c2ccc3c(c2)OCO3)NO1	-4	-9
O=C(Nc1ccc(F)cc1)C1(C(=O)N2CCCCCCC2)CC1	-4	-3
CCOC(=O)c1c(NC(=O)CSc2nc(C)cc(=O)[nH]2)sc2c1CCCC2	-1	-5
CC(=O)OCC(=O)N1CC(=O)N2CC(C)c3ccccc3C2C1 (stereo not given)	1	15

Ordered by heavy-atom count (rising): three of the compounds above
SMILES	NPYLR7 agonist	NPYLR7 agonist max-min
CN(C(=O)CSc1nnc(C2CC2)o1)C1CCS(=O)(=O)C1 (stereo not given)	4	2
O=C(Nc1ccc(F)cc1)C1(C(=O)N2CCCCCCC2)CC1	-4	-3
Cn1cc(CCC(=O)N2CCCCCC2/C=C/c2ccccc2)cn1 (stereo not given)	2	2

Next part
SMILES	NPYLR7 agonist	NPYLR7 agonist max-min
COc1ccc(CN(CCN2CCOCC2)CC(O)Cc2ccccc2)cc1OC (stereo not given)	-2	2
Cc1ccc2nc(N(CCCn3ccnc3)C(=O)c3cccc(F)c3)sc2c1	-13	-19
CCc1cc(NCc2cccs2)n2ncnc2n1	-5	-8
CC(=O)N[C@@H]1CCCCC1NC(=O)C1CCCN(C(=O)c2ccc(Cl)cc2)C1 (stereo not given in full)	17	24
COc1ccc(C2(C(=O)NCCC3CCCN(C)C3)CC2)cc1 (stereo not given)	0	-3
Cc1ccc(F)c(NC2CCCN(C(=O)c3cccc(Br)c3)C2)c1 (stereo not given)	2	7
CN(CCOc1ccc(Br)cc1)C(=O)/C=C/c1ccco1	18	11
CCOC(=O)CCC(=O)N1CCN(C(c2ccccc2)c2ccc(Br)cc2)CC1 (stereo not given)	-3	7
CCOC(=O)C1(Cc2cccc(OC)c2)CCCN(C(=O)CC2=CCCCC2)C1 (stereo not given)	6&2	5&-1
CCOC(=O)Nc1sc(C)nc1-c1ccccc1	-23	-24
COC(=O)c1cnc(Nc2nc(C(N)COCc3ccccc3)cs2)nc1C(F)(F)F (stereo not given)	-4	-9
COc1cccc(OCC(=O)N2CCCC(CCc3ccc(F)cc3)C2)c1 (stereo not given)	7	3
COCCNC(=O)CCc1c(C)nn(-c2nc(C)cc(=O)[nH]2)c1C	-6	-8
O=C(N[C@H]1CCCNC1=O)C1=C[C@@H](NS(=O)(=O)c2cccs2)[C@@H](O)[C@H](O)C1	-8	-14
COc1ccc(/C=C/CN2CCC(C(=O)NC(c3ccc(F)cc3)c3ccc4ccccc4n3)CC2)cc1 (stereo not given)	4	-3
Cc1ccc(OCCSc2nc3ccc(Br)cc3[nH]2)c(C(C)C)c1	-4	-13
Cc1cccc(NC(=O)N2CCN(C(=O)c3cc4ccsc4n3Cc3ccccc3C)CC2C)c1 (stereo not given)	-1	5
COc1ccc(C(=O)N2C(C(=O)NCc3cccc(C(F)(F)F)c3)COC23CCN(C(=O)c2cccc(OC)c2)CC3)cc1 (stereo not given)	-2	8
C(=NN1CCN(C2c3ccccc3-c3ccccc32)CC1)c1ccncc1	6	6
COc1cc(C2SCCS2)ccc1OS(=O)(=O)c1c(C)noc1C	8	4
COC(=O)c1sccc1NS(=O)(=O)c1ccc(F)cc1F	1	1
C(=NN1CCN(C2c3ccccc3-c3ccccc32)CC1)c1c[nH]c2ccccc12	5	3
N=c1oc2cc(O)ccc2cc1C(=O)Nc1cccc(C(F)(F)F)c1	0	-5
Cc1cc(C)n(C(C)Cn2cnc(-c3ccccc3)c2-c2nccn2C)n1 (stereo not given)	-14	-13
CCOC(=O)c1c(C)[nH]c(C(=O)COc2ncnc3sc4c(c23)CCC4)c1C	1	10
O=C(NCc1ccco1)c1noc2c1CCCCC2	5	4
O=C(CSc1ncnc2c1nnn2Cc1ccccc1F)NCc1ccccc1Cl	8	8
Cc1nc(N2CCCC(C(=O)N3CCOc4ccccc4C3)C2)nc2cc(S(C)(=O)=O)ccc12 (stereo not given)	26	8
O=C(c1cccc(N2C(=O)CCC2=O)c1)N(CCn1cccn1)c1nc2ccc(F)cc2s1	-17	-21
Cc1cc(C)n(C)c(=O)c1C(=O)N(Cc1ccccn1)CC1CCCO1 (stereo not given)	15	10
COc1cc(C=C2N=C(c3ccc(C(C)(C)C)cc3)OC2=O)ccc1OCC(=O)N1CCOCC1	0	71
CC1=C(C(=O)Nc2ccccc2C)C(c2ccccc2F)NC(=O)N1 (stereo not given)	1	-1
O=C(CN[C@H]1CCCCNC1=O)Nc1cnccn1	2	4
CC(C)(O)CCOc1ccccc1S(=O)(=O)C(F)(F)F	-5	-5
COC(=O)C1(NC(=O)C2CCN(S(=O)(=O)c3ccc(C)cc3)CC2)CCCCC1	3	2
Cc1ccn2c(NCc3ccccc3)c(-c3cccc(OC(=O)CCCCl)c3)nc2c1	22	35
Cn1ccnc1-c1ccc(N[C@@H](Cc2ccccc2)C(N)=O)nn1	20	8
O=C(NCCC(c1ccccc1)c1ccccc1)c1cc2n(n1)CCN(Cc1c(F)cccc1Cl)C2=O	-1	1
C=C1c2ccccc2C(=O)N1CC(=O)Nc1ccccc1N1CCOCC1	4	11
COCCN(Cc1nccn1Cc1ccccc1)C(C)=O	6	16

Entries of single compounds, quoted from the list. Values in the order: NPYLR7 agonist | NPYLR7 agonist max-min
Shown for CCOC(=O)c1c(C)[nH]c(C(=O)COc2ncnc3sc4c(c23)CCC4)c1C : 1 | 10
Shown for COC(=O)c1sccc1NS(=O)(=O)c1ccc(F)cc1F : 1 | 1

Carrying on:
SMILES	NPYLR7 agonist	NPYLR7 agonist max-min
O=S(=O)(c1ccc(Cl)cc1F)N(Cc1ccco1)Cc1ccco1	0	0
COCCCNC(=O)C(NC(=O)c1cccc(C)c1)C1CCN(C(=O)Cc2ccccc2)CC1 (stereo not given)	-1	7
COc1ccc(C2c3ccsc3CCN2CC(=O)N2CCN(C(=O)C3C[C@H]3c3ccccc3)C(C)C2)cc1 (stereo not given in full)	0	-3
CCOCCn1c(=O)c2c(nc3n(-c4ccccc4)c(C)c(C)n23)n(C)c1=O	-9	-9
CCC1CN(C(=O)Cn2nc(C)cc2N)CCC(=O)N1Cc1ccccc1 (stereo not given)	1	-6
O=C(c1cccc(CC2CCNCC2)c1)N1CCC(O)(Cn2ccnc2)CC1	1	0
NC(=O)c1ccc(N=c2oc3ccccc3cc2C(N)=O)cc1	-5	-10
CCOc1ccc(C(C2Sc3nc(C)nn3C2=O)N2CCN(Cc3ccccc3)CC2)cc1OC (stereo not given)	-3	-11
O=S(=O)(Nc1ccc(SC(F)F)cc1)c1cccc(F)c1	0	-4
O=C1OC2C3CC(C2Sc2ccccc2)C(C(=O)O)C13 (stereo not given)	3	2
Cc1cc(C)c(Cn2ccnc2CN(Cc2cccnc2)C(=O)c2ccc(F)cc2)c(C)c1	-1	1
Cc1ccnc(-n2cc(S(N)(=O)=O)cn2)c1	-4	-3
Cc1ccc(-n2c(SCc3ccc(C(=O)N4CCN(c5ccccc5F)CC4)cc3)nnc2-c2cccnc2)cc1	-17	-14
OCC1(CCOc2ccccc2)CCN(Cc2cn[nH]c2-c2ccc(F)cc2)CC1	-8	-12
CSc1ccc(C(=O)CCC(=O)NCCc2ccc(C)cc2)cc1	-4	-9
O=C(NCC1CCN(CC(F)(F)F)C1)Nc1ccc(-n2cccn2)nc1 (stereo not given)	1	1
CNc1nc2cnc(-c3cc(OC)c(OC)c(OC)c3)cc2n1Cc1ccc(OC)c(OC)c1	-13	-15
Cc1cc(C)c2nc(N(Cc3cccnc3)C(=O)c3cccs3)sc2c1	-11	-9
COc1ccc(C(=O)N2C(C(=O)N3CCCC3)COC23CCN(C(=O)c2cccc(C)c2)CC3)cc1 (stereo not given)	2	11
Cc1cnn(Cc2ccccc2Cl)c1NC(=O)Cc1nonc1C	3	11
CCOc1ccccc1NC(=O)NCc1nnc(SCc2cccc(C)c2)n1-c1cc(Cl)ccc1C	29	27
CCc1ccc(-n2c(C)cn3c4c(=O)n(C)c(=O)n(C)c4nc23)cc1	-1	-3
Cn1c(=O)[nH]c(=O)c2c1nc(N1CCN(c3cccc(Cl)c3)CC1)n2CCSc1ncccn1	18	12
CCOc1ccc(CN2CCOC3(CNCCOC3)C2)cc1CO (stereo not given)	5	2
Cc1ccc(-n2c(C)nnc2SCc2ccc(C(=O)NCc3cccc(C(F)(F)F)c3)cc2)cc1	3	6
O=C(CCC1CCCN(C23CC4CC(CC(C4)C2)C3)C1)Nc1ccccc1F (stereo not given)	-13	-19
O=S(=O)(NCc1ccccc1)NC1CCN(CC2CCCO2)CC1 (stereo not given)	7	6
Cc1ccc(-c2cc(C(=O)N3CCC(n4c(=O)[nH]c5ccccc54)CC3)n(-c3ccccc3Cl)n2)o1	-10	-5
O=C(c1cccc(Cl)c1F)N1CCN(Cc2cccc(Nc3nccs3)n2)CC1	0	-8
O=C(Nc1ccccc1Oc1cccnc1)C1CCCN(C2CCOCC2)C1 (stereo not given)	0	-6
NS(=O)(=O)c1ccc(NC(=O)C2CCN(c3ccc(-c4ccccc4)nn3)CC2)cc1	2	-1
CCOc1ccc(C(=O)NC(C(=O)NCC(c2ccco2)N2CCCC2)C(C)C)cc1 (stereo not given)	0	7
CCNC(=O)c1ccccc1NC(=S)NC(=O)C(C)(C)C	8	10
CC(C)C(=O)NC(CC1CCCCC1)c1ccccc1 (stereo not given)	2	-3
CCOC(=O)C1=C(C)NC(=S)NC1c1ccc(OC(F)F)cc1 (stereo not given)	-2	-5
CN1CCN(c2ncccc2CNC(=O)c2n[nH]c3c2CCC3)CC1	-1	-3
CCN(CC)C(=O)Oc1ccc2c(ccn2C)c1NC(=O)c1cc(C(F)(F)F)cc(C(F)(F)F)c1	4	1
COC(=O)N1CCc2c(sc(NC(=O)c3cccs3)c2-c2nc3ccccc3s2)C1	8	3
COc1cc(-c2ccnc(N3CCN(C(=O)c4ccnc(Cl)c4)CC3)n2)cc(OC)c1OC	23	23
COc1ccc(C(CCN(C)C)Oc2ccc(CC(=O)NCc3ccccc3F)cc2)cc1 (stereo not given)	-9	-8
CN(C)S(=O)(=O)c1cccc(NS(=O)(=O)c2ccc(F)c(F)c2)c1	-5	-6
C[C@H](NC(=O)Cc1cc(F)cc(F)c1)C(=O)N[C@H](C(=O)OC(C)(C)C)c1ccccc1	-6	-4
CS(=O)(=O)N1CCCC(CNC(=O)Cc2ccccn2)C1 (stereo not given)	-4	-1
O=c1ccc(-c2ccc(F)cc2)nn1Cc1ccccc1Cl	4	1

Part of the list above, reformatted.
C[C@H](NC(=O)Cc1cc(F)cc(F)c1)C(=O)N[C@H](C(=O)OC(C)(C)C)c1ccccc1
  NPYLR7 agonist = -6; NPYLR7 agonist max-min = -4

CS(=O)(=O)N1CCCC(CNC(=O)Cc2ccccn2)C1 (stereo not given)
  NPYLR7 agonist = -4; NPYLR7 agonist max-min = -1

CN(C)S(=O)(=O)c1cccc(NS(=O)(=O)c2ccc(F)c(F)c2)c1
  NPYLR7 agonist = -5; NPYLR7 agonist max-min = -6

Screens from PubChem BioAssay.

Not all compounds are listed; the hit share may differ from the screen's.
